High-throughput results as filed in PubChem BioAssay.
Sfp PPTase inh: qHTS Assay for Inhibitors of Bacillus subtilis Sfp phosphopantetheinyl transferase (PPTase); 310,000 tested, 3.5% active; Biochemical Sfp PPTase activity, qHTS; Potency, µM, inactives show max response, negative = inhibition, hits mostly inhibitors; AID 1490, 2009; 4'-phosphopantetheinyl transferase ffp (Bacillus subtilis), Q9F4F7; active = well fitted inhibition curve with a large enough effect; inconclusive = small, poorly fitted or top-dose-only effect, or another doubt; inactive = no such curve, though single readings can be large or run the other way;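 note: the enzyme is Sfp with the accession as filed and its product quenches rhodamine fluorescence; potency is the fitted concentration of half-maximal effect; 0% = enzyme reaction without inhibitor and -100% = no enzyme wells; top concentration of the series not given in the record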
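Sfp 15 nM + cpd, 15 min RT; start w/ rhodamine-CoA 5 uM, BHQ-2-YbbR 12.5 uM (final); 50 mM Hepes pH 7.6, 10 mM MgCl2, 0.01% NP-40, 0.01% BSA; read 525/598 nm at 0 and 30 min.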
TRPV1 PAM: HTS Assay for Compounds that Act as Potentiators of the Vanilloid Receptor 1. TRPV1-expressing cells, Fluo-8 calcium influx, capsaicin EC20 potentiation; host cell line not named in the record; control for the full effect not named in the record. 320,000 tested, 0.02% active. AID 540277, 2011. potentiation, % at 8.33 µM; active means potentiation above 80%; inconclusive means 30% to 80%; inactive means below 30%; note: 0% is about no effect
Target sequence (Q8NER1 whole entry, looked up): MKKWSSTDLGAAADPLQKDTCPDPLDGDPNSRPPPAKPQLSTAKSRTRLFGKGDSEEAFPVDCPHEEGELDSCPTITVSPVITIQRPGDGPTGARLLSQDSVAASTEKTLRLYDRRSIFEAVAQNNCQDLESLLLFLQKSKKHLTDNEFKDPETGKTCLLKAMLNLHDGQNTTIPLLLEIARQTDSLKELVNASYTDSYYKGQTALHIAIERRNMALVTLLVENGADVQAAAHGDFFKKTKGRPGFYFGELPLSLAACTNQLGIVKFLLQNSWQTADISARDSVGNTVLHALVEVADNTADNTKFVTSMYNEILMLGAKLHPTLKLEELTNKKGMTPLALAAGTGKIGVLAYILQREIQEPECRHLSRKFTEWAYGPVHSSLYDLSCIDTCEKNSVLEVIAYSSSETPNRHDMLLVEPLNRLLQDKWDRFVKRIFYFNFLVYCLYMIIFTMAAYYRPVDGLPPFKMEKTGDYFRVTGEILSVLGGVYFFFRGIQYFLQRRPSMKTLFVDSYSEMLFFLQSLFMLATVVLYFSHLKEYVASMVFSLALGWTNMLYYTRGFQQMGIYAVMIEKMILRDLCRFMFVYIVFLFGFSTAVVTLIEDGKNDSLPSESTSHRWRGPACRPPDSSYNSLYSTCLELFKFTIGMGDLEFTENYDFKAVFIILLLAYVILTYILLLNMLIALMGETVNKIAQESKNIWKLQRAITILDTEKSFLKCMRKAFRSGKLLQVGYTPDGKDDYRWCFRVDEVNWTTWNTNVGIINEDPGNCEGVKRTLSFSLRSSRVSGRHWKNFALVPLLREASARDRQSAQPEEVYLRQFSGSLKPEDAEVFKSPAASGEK
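TRPV1-expressing cells were cultured overnight at 35.5C and loaded with Fluo-8 calcium dye for 40 to 90 min at room temperature. After a 10 s baseline, compound was added and calcium influx was read kinetically for 3 min (ex 480/em 520 nm).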
CtBP-E1A blk: qHTS Assay for Inhibitors of the CtBP/E1A Interaction. CtBP / adenovirus E1A interaction (AlphaScreen). AlphaScreen GST-E1A/His-CtBP binding, 1536-well; hits give low values; control for the full effect not named in the record. activity change, % (no concentration beside the values). 340,000 tested, 0.49% active; in the data active means activity change below about -65%; inconclusive means about -30% to -65%; inactive means above about -30%; note: % is set by controls: 0 for no effect and ±100 for the full control effect; compound concentration not given in the record
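Steps: dispense buffer (Tris pH 8.0, NaCl 300 mM, TCEP 1 mM, BSA, Tween 20); add 5X protein mix (GST-E1A, His-CtBP, 125 nM each); pin 23 nL compound; 2 h at 37 °C, dark; add 5X beads (50 ug/mL); 1 h; read.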
gsp antag: qHTS for Antagonists of gsp, the Etiologic Mutation Responsible for Fibrous Dysplasia/McCune-Albright Syndrome: qHTS; gsp-mutant cells, cAMP HTRF, 30 min; control for the full effect not named in the record; Potency, µM (doses to about 76.9 µM), for the others: at the top dose activity change, negative = inhibition, hits mostly inhibitors; 340,000 tested, 0.4% active; AID 624288, 2012; active = falling curve of any shape with a large fitted effect; inconclusive = falling curve, mostly with a smaller effect; inactive = flat or rising curve; cell line not stated here;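 note: intracellular cAMP measured with PDE inhibitor Ro 20-1724 present during compound exposure; potency is the fitted concentration of half-maximal effect; % is set by controls: 0 for no effect and ±100 for the full control effect; nearly all actives have a fitted effect of over 65% in size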
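G418-selected cells were plated in DMEM/10% FBS for 16-24 h at 37C, then treated with compounds plus the PDE inhibitor […] (300 uM solution added) for 30 min at 37C. Intracellular cAMP was measured by HTRF after 30 min lysis at room temperature.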
gsp agonist: qHTS for Agonist of gsp, the Etiologic Mutation Responsible for Fibrous Dysplasia/McCune-Albright Syndrome: qHTS | 340,000 tested, 0.13% active | AID 624287, 2012 | Potency, µM (highest dose often 76.9 µM), without a hit: at the top dose activation (cAMP increase), most hits filed as activators | gsp mutant cells, cAMP HTRF, 30 min; control for the full effect not named in the record; active = well fitted activation curve with a large enough effect; inconclusive = small, poorly fitted or top-dose-only effect, or another doubt; inactive = no such curve, though single readings can be large or run the other way; cell line not stated here;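 note: phosphodiesterase inhibitor Ro 20-1724 added with compounds to block cAMP breakdown; potency is the fitted concentration of half-maximal effect; nearly all actives have a fitted effect of over 60% in size; about a fifth of the inactives were tested at one dose only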
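Cells in DMEM/10% FBS with G418 were pretreated with compounds in DMSO plus […] (300 uM stock) for 30 min at 37C. cAMP was measured by HTRF (cAMP-d2 plus anti-cAMP antibody-K) after 30 min at room temperature.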
Menin-MLL FL inh: qHTS Assay for Inhibitors Targeting the Menin-MLL Interaction in MLL Related Leukemias: Competition With Fluorescein Labeled MLL-derived Peptide. FP activity change, % at 61.4 µM. Fluorescence polarization, fluorescein-MLL peptide displacement from menin. 290,000 tested, under 10 active. AID 1766, 2009; inconclusive = falling polarisation curve, or a change in total fluorescence; inactive = total fluorescence flat and polarisation flat or rising; no compound was filed as active; the % refers to the polarisation; negative = inhibition;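 note: % of control where 0% means no effect; inhibitors lower the polarisation; unlabelled MLL peptide was the positive control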
ClpP mod: qHTS Assay for Activators of ClpP; ATP-dependent Clp protease proteolytic subunit (Bacillus subtilis (strain 168)), P80244; purified B. subtilis ClpP, FRET peptide cleavage, 20 min; Potency, µM (doses to about 57.5 µM), for the others: at the highest dose activity change, negative = active; 340,000 tested, 1.9% active; AID 651965, 2013; active = well fitted falling curve with a large enough effect; inconclusive = small, poorly fitted or top-dose-only effect; inactive = no such curve, though single readings can be large or run the other way; note: potency is the fitted concentration of half-maximal effect; the source files actives as falling curves though it sought activators and does not explain the sign; nearly all actives have a fitted effect of over 65% in size; many hits overshoot -100%
Target sequence (P80244 whole entry, looked up): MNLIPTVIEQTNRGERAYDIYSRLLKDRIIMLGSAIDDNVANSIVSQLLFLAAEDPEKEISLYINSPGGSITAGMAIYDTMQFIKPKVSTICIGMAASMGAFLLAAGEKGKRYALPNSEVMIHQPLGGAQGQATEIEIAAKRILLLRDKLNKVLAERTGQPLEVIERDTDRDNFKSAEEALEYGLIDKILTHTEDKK
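Buffer: 100 mM Tris/HCl pH8, 100 mM KCl, 0.05% low protease BSA, 2.5% glycerol, 0.01% Tween-20. ClpP 10 microg/mL final; 20 min RT; delta FRET normalized to ADEP and DMSO controls.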
* = called active by the depositor; u = inconclusive; x = not tested or not shown; [ ] = remark or other dose.

SMILES | Sfp PPTase inh | TRPV1 PAM | CtBP-E1A blk | gsp antag | gsp agonist | Menin-MLL FL inh | ClpP mod
Nc1nc2n(n1)C(c1ccc(F)cc1)CC(c1ccc(F)cc1)N2 (configuration not stated) | 1.1% | -6.6 | 32.5 | 1.1% | 7.2% | -1.6 | 4.4%
Cc1nc2cc(NC(=O)N3CCCCC3)ccc2n1C | -11.3% | 19.9 | 2.7 | 2.3% | -37.3% | 1.4 | -1.2%
Cc1ccc(C)c(N2CCN(C(=O)c3cc(S(=O)(=O)N4CCOCC4)ccc3F)CC2)c1 | -8.7% | -10.5 | -5.5 | -20.6% | 21.4% | 1.2 | 1.2%
COc1ccc(Cl)cc1NC(=O)CSc1nnc(Cc2ccc(C)cc2)c(=O)[nH]1 | x | 3.7 | 2.3 | u | -3.4% | x | 1.1%
CCCOc1ccc(C(=O)OCC(=O)c2c(N)n(C)c(=O)n(C)c2=O)cc1OCC | 7.9% | 5.7 | 0.2 | x | 19.0%[15.4 µM] | -3.8 | x
CN1C(=O)Cc2cc(S(=O)(=O)N3CCN(c4cccc(Cl)c4)CC3)ccc21 | -5.2% | -23.5 | -7.7 | 9.0% | -18.0% | x | 0.4%
CCc1nccn1S(=O)(=O)c1cc(C)c(OC)cc1C | 13.3% | 10.8 | 1.5 | -2.1% | 22.8% | 2.6 | -0.6%
CCN(CC)S(=O)(=O)c1ccc(Cc2ncc(C(F)(F)F)cc2Cl)s1 | -1.4% | -0.3 | 11.5 | u | 4.6% | 6.8 | -0.3%
Cc1ccc(-n2c(C)nn(-c3ncc(C(F)(F)F)cc3Cl)c2=O)cc1 | 13.8% | -4.4 | 0.5 | 13.1% | 5.3% | -0.8 | 2.8%
CCCCNC(=O)O[C@@H]1C[C@H]2CCC(=O)N3CC[C@@H](C1)[C@@H]23 | -1.5% | -3.3 | 3.2 | 5.7% | x | -1.0 | 1.6%
O=C(Nc1cccc([N+](=O)[O-])c1)C1C2/C=C\CCCCC21 (configuration not stated) | 9.8% | -2.3 | 9.2 | 7.9% | 3.0% | -2.6 | -2.0%
CCOc1ccccc1NC(=O)Cn1c(=O)sc2ccccc21 | 14.0% | 4.3 | 6.4 | -14.5% | 17.1%[15.4 µM] | -5.0 | -1.2%
CN1C(=O)/C(=C/C=C2/CCCN2C)N(C)C1=S | 79.4µM* | 3.9 | -10.4 | u | u | u | x
Cc1ccc2cc3cc(C(=O)N4CCCCCC4)oc3nc2c1 | 3.5% | 2.9 | -2.4 | -13.7% | -14.6% | 11.9 | u
COc1cc(COc2ccc3c(C)c(Cc4ccccc4)c(=O)oc3c2C)cc(OC)c1OC | 1.1% | 1.8 | -7.0 | -9.2% | -19.4% | -1.3 | 15.8µM*
COc1ccc(/C=N/NC(=S)Nc2ccccc2)cc1COc1ccc(Br)cc1 | -6.2% | -1.1 | -6.0 | -2.7% | 7.1% | -0.4 | -1.9%
COc1ccc(S(=O)(=O)N(CC(=O)N/N=C/c2cccs2)c2cc(C)cc(C)c2)cc1OC | -1.5% | 8.5 | -8.7 | -17.1% | 0.7% | 2.8 | -0.7%
O=C(CCn1ccnc1)Nc1cc(Cl)ccc1O | 14.7% | 6.6 | 3.0 | 1.8% | -17.0%[15.4 µM] | -11.4 | x
COc1ccc(OCCCC(=O)Nc2ccc(OC)c(S(=O)(=O)N3CCOCC3)c2)cc1 | x | 13.4 | 1.6 | -8.7% | u | x | -1.0%
Cc1ccc2nc(NC(=S)NC(=O)c3ccc(OC(C)C)cc3)sc2c1 | -92.9% | 6.5 | 3.0 | 10.1% | u | 3.5 | 4.7%
O=C(COC(=O)COc1ccccc1F)Nc1cccc(S(=O)(=O)N2CCCCC2)c1 | x | x | -2.5 | -2.4% | -6.2%[15.4 µM] | x | u
CC(=O)c1c(N=CN(C)C)nc(C)nc1-c1ccccc1 | 14.9% | 7.6 | -1.1 | 0.6% | -0.3% | 2.3 | -2.0%
O=C(NCc1ccccc1)c1ccc(Br)o1 | -5.2% | 12.5 | 0.4 | 5.4% | x | 6.1 | -0.3%
CCN(CC)CCCn1c2c(c(SCC(=O)N3CCc4ccccc43)nc1=O)CCC2 | x | 1.3 | 0.0 | 0.9% | 1.6% | x | -3.0%
Cc1ccccc1COc1ccc(-c2nnn(CC(=O)O)n2)cc1 | 11.5% | 4.8 | 5.4 | 12.6% | 5.4% | 6.9 | x
CC(C(=O)c1ccc(Br)cc1)[n+]1cccc(NC(=O)c2ccccc2)c1 (configuration not stated) | 2.4% | -14.7 | 5.3 | 4.2% | 10.9% | x | -0.4%
C=CCn1c(SCc2nc3sc(C(=O)O)c(C)c3c(=O)[nH]2)nnc1-c1ccc(F)cc1 | 26.4% | 9.7 | -5.7 | -4.6% | u | 13.6 | x
CSc1ccc(CN(C)Cc2nc3ccccc3c(=O)[nH]2)cc1 | -20.8% | -1.4 | x | 2.1% | u | 0.0 | -1.6%
COc1ccc(-c2nsc(SCC(=O)NCc3ccc4c(c3)OCO4)n2)cc1 | -7.7% | 6.6 | 4.8 | u | 12.1% | 3.6 | -4.9%
Cc1ccc(CC(SCc2ccccc2)C(=O)O)cc1C (configuration not stated) | 13.6% | 20.7 | 0.0 | -3.3% | 7.0%[15.4 µM] | x | x
Cc1noc(C)c1COC(=O)c1cc(F)c(F)cc1Cl | 1.1% | 2.6 | 10.6 | -4.7% | 6.2% | 0.3 | -0.1%
NC(=O)CC(NC(=O)Cc1cccc2ccccc12)c1ccc(NC2CCN(Cc3ccccc3)CC2)c([N+](=O)[O-])c1 (configuration not stated) | 7.6% | 8.4 | 2.0 | 3.1% | 23.7% | -2.8 | 0.1%
O=C(c1cnn2cccnc12)N1CCN(Cc2ccc3c(c2)OCO3)CC1 | 22.0% | -5.2 | 8.4 | -3.6% | 2.9% | 3.3 | -3.0%
Cc1ccc(C)c(NC(=O)c2cc(-c3cc(C)cc(C)c3O)n[nH]2)c1 | 7.7% | 23.8 | -0.2 | -28.3% | u | -14.6 | x
COCCN(C(=O)COC(=O)CCc1ccc(OC)cc1)c1c(N)n(Cc2ccccc2)c(=O)[nH]c1=O | x | 7.3 | 3.1 | 16.4% | -10.8% | x | 0.8%
CN(C)c1nc2ccccc2n(C)c1=O | -27.7% | -6.3 | -8.5 | 11.7% | 2.1% | 0.4 | x
COc1cccc(CNCC(O)COc2ccc(C(=O)c3ccccc3)cc2)c1 (configuration not stated) | -23.8% | -16.6 | -1.5 | 3.6% | -26.9% | x | x
Cc1ccc(-c2nnn(CC(=O)N3CCCCC3)n2)c(-n2cnnn2)c1 | -10.7% | -10.9 | 1.1 | 8.8% | 9.0% | 4.6 | -1.8%
C/C(=N\O)C(=O)C(CN1CCCCC1)CN1CCCCC1 | -9.5% | 17.5 | -21.6 | 6.5% | -27.8% | 5.4 | -0.5%
O=C(COc1ccc(C(=S)N2CCC(Cc3ccccc3)CC2)cc1)N1CCOCC1 | -5.7% | -16.4 | 5.9 | -14.5% | u | -2.6 | 0.5%
CCOc1cccc2sc(N(CCN(CC)CC)C(=O)c3cccc([N+](=O)[O-])c3)nc12 | -16.4% | -24.3 | 5.1 | 5.2% | u | -1.7 | 2.0%
COc1ccc(-n2nc(C(=O)Nc3ccc4c(c3)OCO4)c3ccccc3c2=O)c(OC)c1 | u | u | -5.2 | 4.9% | -4.0% | 3.5 | -3.7%
CC(C(=O)Nc1cccc(S(=O)(=O)N2CCOCC2)c1)N1CCN(c2ccc(F)cc2)CC1 (configuration not stated) | 11.5% | 7.3 | -6.6 | -17.5% | 4.3% | 0.3 | x
COc1ccc(/C=N/NC(=O)CCn2cnc3ccccc32)cc1 | 16.5% | 5.2 | 0.7 | -4.6% | -3.7%[15.4 µM] | -0.4 | x
COc1ccc(N(C(=O)c2cnsn2)C(C(=O)NC2CCCCC2)c2ccncc2)cc1 (configuration not stated) | 12.1% | -12.0 | x | 2.3% | 10.9% | 3.5 | 0.8%
CC(C)(C)c1ccc(-n2ncc3c2CCCC3NC(=O)CCN2CCCC2=O)cc1 (configuration not stated) | 3.3% | -17.3 | x | -4.2% | 6.1% | x | -0.9%
Cc1cccc(N2C(=O)CC(Sc3nc(-c4ccccc4)c4cc(Cl)ccc4n3)C2=O)c1 (configuration not stated) | 12.7% | 9.5 | -2.0 | -8.1% | u | 1.0 | 28.2µM*
Cc1ccc(Cn2nnc3c(=O)[nH]c(C4CCN(S(=O)(=O)Cc5ccccc5)CC4)nc32)cc1 | -6.7% | -5.6 | 14.3 | -21.1% | -20.5% | u | x
Cc1ccc(CNC(=O)C2CCC(=O)N2Cc2ccc(C)cc2)cc1 (configuration not stated) | 6.3% | -11.4 | -0.1 | -4.6% | 2.5% | -1.5 | 1.7%
CC(C)Oc1ccc(CNC(=O)C2CCN(C(=O)N3CCOc4ccccc43)CC2)cc1 | 6.0% | -5.0 | 9.9 | 1.8% | u | -4.0 | -2.3%
COc1ccc(NC2=Nc3cccc4cccc2c34)cc1OC | -18.4% | -1.7 | -0.9 | -23.0% | 24.5% | 12.4 | 2.1%
COc1ccc(C(CNC(=O)Cn2[nH]c(=O)c3ccccc3c2=O)N2CCCC2)cc1 (configuration not stated) | -0.5% | -4.0 | -1.2 | 4.0% | u | 5.0 | -6.3%
O=C(c1ccco1)N1CCN(c2ncnc3c2[nH]c2ccc(Br)cc23)CC1 | -2.6% | 26.9 | u | -27.6% | u | -0.6 | u
Cc1ccc(C(C)C)c(OCc2ccc(C(=O)N/N=C/c3ccc(O)c(O)c3)cc2)c1 | u | -5.7 | -3.3 | -7.3% | 6.2%[15.4 µM] | 8.5 | -11.1%
Cc1cc(C(=O)OCC(=O)NCc2ccc3c(c2)OCO3)c2ccccc2n1 | 23.8% | -3.3 | -4.3 | -3.8% | -31.4%[inhibitor] | 1.0 | x
